Calb FLC: C. albicans growth modulation with fluconazole; C. albicans CaCi-2 (fluconazole-resistant clinical isolate) + fluconazole, Alamar Blue growth, 48 h; growth inhibition, % (no concentration beside the values); actives 0.57% (n = 300,000); AID 1979;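 active means most replicates above 75%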;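 further: all wells also contain fluconazole at 8 µg/ml as a sub-toxic cotreatment; 0% = median of DMSO wells and 100% = median of geldanamycin control wells; wells of about 8 µL received 7.5 nL stock; the first replicate is given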
ALR inh: human ALR oxidase inhibition via reduced H2O2 | actives 3.8% (n = 290,000) | P55789 | purified ALR, DTT oxidation, H2O2 HRP-luminol luminescence | inhibition, % (concentration not given with the values);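 active means mean and each replicate at 75% or more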;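 further: stock transfer was 7.5 nL into about 7.5 µL; 0% = neutral wells and 100% = wells with inactivated enzyme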
Target sequence (P55789 whole entry, looked up): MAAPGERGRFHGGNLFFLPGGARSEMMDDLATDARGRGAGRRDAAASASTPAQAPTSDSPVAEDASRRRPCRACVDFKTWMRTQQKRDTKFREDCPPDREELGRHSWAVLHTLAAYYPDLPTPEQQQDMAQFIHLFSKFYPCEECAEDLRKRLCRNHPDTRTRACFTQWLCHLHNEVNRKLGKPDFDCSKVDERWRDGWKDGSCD
T cruzi inh: blocks replication of Trypanosoma cruzi; inhibition, % (no concentration beside the values); actives 1.4% (n = 300,000); T. cruzi beta-gal in NIH3T3, luminescence, 90 h;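 active means mean inhibition across valid replicates above about 55%, limit read from the data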;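 further: signal also drops with host cell toxicity which is not excluded here; 0% = plate median of DMSO wells and 100% = zero luminescence signal; higher percent means less beta-gal luminescence so fewer parasites; stock transfer was 50 nL into about 50 µL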
RanGTP-Imp inh: disruptors of Ran-importin-beta complex formation – biochemical, FRET, CFP-Ran, YFP-importin-beta, homogeneous, primary screen; cell-free CFP-Ran/YFP-importin-beta FRET ratio; inhibition, % (concentration not given with the values); actives 1.1% (n = 300,000);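 active means most replicates above 15%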;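 further: 0% = DMSO wells and 100% = Ran loaded with GDP instead of GTP; wells of about 40 µL received 100 nL stock; the first replicate is given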
Beta apoptosis: blocks beta cell apoptosis. actives 0.8% (n = 300,000). AID 435005. INS-1E cytokine-induced death, ATP luminescence, 48 h; percent of positive-control rescue, neutral wells zero. protection from apoptosis, % (no concentration beside the values);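 active means all replicates at 75% or more, or half of them and the mean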;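 further: 0% = cytokine-treated negative control wells and 100% = positive control rescue; higher means more ATP so stronger rescue from cytokine killing; wells of about 40 µL received 100 nL stock; the first replicate is given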
Ecoli rRNA inh: selective bacterial rRNA inhibition in E. coli | E. coli WT GFP vs humanized-ribosome RFP mutants, fluorescence, 24 h; active compounds read low; DMSO median 0, no signal -100 | GFP signal change (wild-type ribosome), % (no concentration beside the values) | actives 1.6% (n = 350,000);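 active means significant combined selectivity score with lowered wild-type GFP, culture density cut under 30%, mutant RFP and density less affected; inactive means any of these conditions unmet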; further: one replicate is shown; some compounds called inactive have numbers as strong as hits
FGF22 binding: FGF22 (human) thermal shift binding. Q9HCT0. recombinant FGF22 thermal shift, SYPRO orange fluorescence; percent of sucrose octasulfate shift, DMSO zero. calls only at 9.99 µM. actives 1.5% (n = 340,000). AID 651658;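 active means melting point raised past a set limit in the mean and every replicate; three in four hits are not shown here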
Target sequence (Q9HCT0 whole entry, looked up): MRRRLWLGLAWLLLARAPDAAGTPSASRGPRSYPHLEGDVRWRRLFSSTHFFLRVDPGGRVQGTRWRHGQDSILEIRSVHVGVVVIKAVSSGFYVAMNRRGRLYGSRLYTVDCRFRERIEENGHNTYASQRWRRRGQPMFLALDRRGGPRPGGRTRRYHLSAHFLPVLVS
AF4-AF9 inh: MLL-AF4/AF9 protein interaction inhibition; inhibition, % at 10 µM; actives 0.47% (n = 350,000); P42568; AID 651704; AlphaScreen, biotin-AF4 peptide binding to FLAG-AF9;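 active means every replicate reaching a set inhibition limit, whatever the replicate mean, cut at about 25% in these data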;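 further: 0% = plate neutral control median and 100% = total signal loss; the record names both 10 and 1 µM as test concentration; the first replicate is given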
Ecoli rRNA inh OD600: also measured in Ecoli rRNA inh; calls as there; OD600 change, %; measured here: OD600 growth;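 optical density of the mix in the first replicate; 0 = DMSO median and -100 = no signal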
Ecoli rRNA inh RFP: recorded beside Ecoli rRNA inh, whose call it bears; RFP signal change, %; measured here: RFP humanized mutant strains;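 first replicate; 0 = DMSO median and -100 = no signal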
Starred values were filed as active, the others as inactive; i = inactive; / = no result given. A portion of the library; count on the stated rates, not on these rows.

No. | molecule | Beta apoptosis | Ecoli rRNA inh RFP | FGF22 binding | AF4-AF9 inh | T cruzi inh | Ecoli rRNA inh OD600 | Calb FLC | ALR inh | RanGTP-Imp inh | Ecoli rRNA inh
1 | C=CCn1c(O)c(C(C)=Nc2ccc(NC(C)=O)cc2)c(=O)[nH]c1=O | 8.8 | / | / | / | -12.8 | / | -0.6 | -6.0 | -5.2 | /
2 | C=CCN1CCc2cccc3c2[C@H]1Cc1ccc(O)c(O)c1-3 | -8.0 | -1.2 | i | -7.8 | -2.2 | -0.8 | 10.5 | 99.5* | 18.7* | -6.0
3 | O=C(Cc1ccccc1)OCCN1CCCCC1 | 0.9 | / | / | / | -8.1 | / | -1.2 | 2.2 | 2.0 | /
4 | COc1cc2c(cc1OC)-c1c(OC)c(OC)cc3c1C(C2)N(C)CC3 (configuration not stated) | / | / | i | 14.0 | 33.7 | / | 3.8 | -9.1 | -5.9 | /
5 | CC1(c2ccccc2)NCCN2C(=O)CSC21 (configuration not stated) | -1.4 | / | / | / | 3.5 | / | 3.0 | 8.1 | 2.3 | /
6 | CNC(=O)Nc1ccc(C(O)(C(=O)OC)C(F)(F)F)cc1 (configuration not stated) | 0.6 | 2.8 | i | -5.1 | 1.8 | 2.1 | 2.4 | -4.1 | 1.3 | 12.1
7 | Fc1cccc(CN2CCN(c3ccc(Cl)cc3)CC2)c1 | -6.7 | 0.9 | i | 2.5 | 7.3 | -26.2 | -24.8 | 13.5 | -0.2 | -13.7
8 | CN1CCN(c2ccc(S(=O)(=O)C(F)(F)F)cc2[N+](=O)[O-])CC1 | -2.6 | 0.6 | i | 6.0 | 24.7 | 6.0 | -1.3 | -3.6 | 1.7 | 3.4
9 | CC(=NCCO)c1c(O)n(C2CCCCC2)c(=O)[nH]c1=O | 4.1 | / | / | / | -22.4 | / | -0.6 | 2.1 | 1.0 | /

Not a retest: eight of the compounds above.
No. | molecule | Beta apoptosis | Ecoli rRNA inh RFP | FGF22 binding | AF4-AF9 inh | T cruzi inh | Ecoli rRNA inh OD600 | Calb FLC | ALR inh | RanGTP-Imp inh | Ecoli rRNA inh
2 | C=CCN1CCc2cccc3c2[C@H]1Cc1ccc(O)c(O)c1-3 | -8.0 | -1.2 | i | -7.8 | -2.2 | -0.8 | 10.5 | 99.5* | 18.7* | -6.0
3 | O=C(Cc1ccccc1)OCCN1CCCCC1 | 0.9 | / | / | / | -8.1 | / | -1.2 | 2.2 | 2.0 | /
4 | COc1cc2c(cc1OC)-c1c(OC)c(OC)cc3c1C(C2)N(C)CC3 (configuration not stated) | / | / | i | 14.0 | 33.7 | / | 3.8 | -9.1 | -5.9 | /
5 | CC1(c2ccccc2)NCCN2C(=O)CSC21 (configuration not stated) | -1.4 | / | / | / | 3.5 | / | 3.0 | 8.1 | 2.3 | /
6 | CNC(=O)Nc1ccc(C(O)(C(=O)OC)C(F)(F)F)cc1 (configuration not stated) | 0.6 | 2.8 | i | -5.1 | 1.8 | 2.1 | 2.4 | -4.1 | 1.3 | 12.1
7 | Fc1cccc(CN2CCN(c3ccc(Cl)cc3)CC2)c1 | -6.7 | 0.9 | i | 2.5 | 7.3 | -26.2 | -24.8 | 13.5 | -0.2 | -13.7
8 | CN1CCN(c2ccc(S(=O)(=O)C(F)(F)F)cc2[N+](=O)[O-])CC1 | -2.6 | 0.6 | i | 6.0 | 24.7 | 6.0 | -1.3 | -3.6 | 1.7 | 3.4
9 | CC(=NCCO)c1c(O)n(C2CCCCC2)c(=O)[nH]c1=O | 4.1 | / | / | / | -22.4 | / | -0.6 | 2.1 | 1.0 | /

Screening data (PubChem BioAssay)
